# Source: PubChem BioAssay (National Center for Advancing Translational Sciences (NCATS))
# Sfp inh – blocks B. subtilis Sfp PPTase activity; Q9F4F7; Potency, µM, without a hit: max response, negative = inhibition, hits mostly inhibitors; AID 1490; Biochemical Sfp PPTase activity, qHTS; 3.5% of 310,000 active; active = well fitted inhibition curve with a large enough effect; inconclusive = small, poorly fitted or top-dose-only effect, or another doubt; inactive = no such curve, though single readings can be large or run the other way;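 also: the enzyme is Sfp with the accession as filed and its product quenches rhodamine fluorescence; potency is read from the fitted curve at half-maximal effect; 0% = enzyme reaction without inhibitor and -100% = no enzyme wells; top concentration of the series not given in the record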
#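 With Hepes-Na pH 7.6 buffer containing 10 mM MgCl2, Sfp (15 nM) modified BHQ-2-YbbR (12.5 uM) using rhodamine-CoA (5 uM). Two reads 30 minutes apart at 525/598 nm yielded each well's rate.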
# gsp agonist – gsp mutant agonism; gsp mutant cells, cAMP HTRF, 30 min; control for the full effect not named in the record; Potency, µM (series often up to 76.9 µM), without a hit: at the top dose activation (cAMP increase), most hits filed as activators; 0.13% of 340,000 active; active = well fitted activation curve with a large enough effect; inconclusive = small, poorly fitted or top-dose-only effect, or another doubt; inactive = no such curve, though single readings can be large or run the other way; cell line not stated here;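 also: phosphodiesterase inhibitor Ro 20-1724 added with compounds to block cAMP breakdown; potency is read from the fitted curve at half-maximal effect; nearly all actives have a fitted effect of over 60% in size; about a fifth of the inactives were tested at one dose only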
#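 Cells in DMEM/10% FBS with G418 were pretreated with compounds in DMSO plus […] (300 uM stock) for 30 min at 37C. cAMP was measured by HTRF (cAMP-d2 plus anti-cAMP antibody-K) after 30 min at room temperature.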
# D2 agonist – agonists of human D2 dopamine receptor (beta-arrestin) | P14416 | DiscoveRx PathHunter D2 beta-arrestin, luminescence, 90 min; 100% = 57 uM dopamine signal | activation, % (no concentration beside the values) | 0.084% of 360,000 active; in the data active = activation above about 40%; inconclusive = about 15% to 40%; inactive = below about 15%; also: compound concentration not given in the record; the text of the record calls up to 30% inactive
# Target sequence (P14416 whole entry, looked up): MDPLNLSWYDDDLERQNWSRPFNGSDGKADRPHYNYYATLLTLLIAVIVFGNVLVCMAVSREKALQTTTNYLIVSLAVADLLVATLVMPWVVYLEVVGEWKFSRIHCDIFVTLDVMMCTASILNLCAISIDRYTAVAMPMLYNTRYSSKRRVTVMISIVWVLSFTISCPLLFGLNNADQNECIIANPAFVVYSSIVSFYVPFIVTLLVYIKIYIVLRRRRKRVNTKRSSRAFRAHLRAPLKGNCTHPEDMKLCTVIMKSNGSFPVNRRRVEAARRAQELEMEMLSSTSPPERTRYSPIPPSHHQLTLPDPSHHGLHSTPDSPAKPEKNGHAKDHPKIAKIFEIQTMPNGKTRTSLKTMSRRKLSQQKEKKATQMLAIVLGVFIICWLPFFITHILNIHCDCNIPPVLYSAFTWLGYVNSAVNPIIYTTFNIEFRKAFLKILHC
#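 DiscoveRx PathHunter D2 beta-arrestin cells (2,100/well) attached overnight, then compound-stimulated 90 min at 37 C in HBSS/10 mM HEPES/0.1% Tween-20 buffer; beta-galactosidase complementation read by luminescence after 1 h at ambient temperature. Dopamine 57 uM final (EC100) as control.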
# PINK1 modulator – modulators of PINK1 expression; PINK1 immunofluorescence, high-content cytometry, 24 h; Potency, µM (titrated, usually from 76.6 µM), for the others: at the highest dose activation (PINK1 increase), most hits filed as activators; 0.2% of 410,000 active; AID 624263; active = well fitted activation curve with a large enough effect; inconclusive = small, poorly fitted or top-dose-only effect; inactive = flat fitted curve, though single readings scatter; cell line not stated here;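 also: potency is read from the fitted curve at half-maximal effect; % of control where 0% means no effect; nearly all actives have a fitted effect of over 65% in size; a mitochondrial uncoupler was the plate control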
#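 A stable cell line was treated with compounds at 5 concentrations for 24 hours, with CCCP as control. PINK1 levels and mitochondrial localization were measured by immunofluorescence with mitochondrial, cell and nuclear markers after fixation, read by laser-scanning cytometry.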
# Menin MLL FP FL – inhibitors of human menin-MLL interaction, wild-type MLL peptide; Fluorescence polarization, fluorescein-MLL peptide displacement from menin; FP activity change, % at 61.4 µM; 290,000 tested, under 10 active; inconclusive = falling polarisation curve, or a change in total fluorescence; inactive = total fluorescence flat and polarisation flat or rising; no compound was filed as active; the % refers to the polarisation; negative = inhibition;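 also: % of control where 0% means no effect; inhibitors lower the polarisation; unlabelled MLL peptide was the positive control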
# ClpP mod – qHTS Assay for Activators of ClpP. AID 651965, 2013. 1.9% of 340,000 active. Potency, µM (doses to about 57.5 µM), for inactives: top-dose activity change, negative = active. purified B. subtilis ClpP, FRET peptide cleavage, 20 min. ATP-dependent Clp protease proteolytic subunit (Bacillus subtilis (strain 168)), P80244; active = well fitted falling curve with a large enough effect; inconclusive = small, poorly fitted or top-dose-only effect; inactive = no such curve, though single readings can be large or run the other way; also: potency is read from the fitted curve at half-maximal effect; the source files actives as falling curves though it sought activators and does not explain the sign; nearly all actives have a fitted effect of over 65% in size; many hits overshoot -100%
# Target sequence (P80244 whole entry, looked up): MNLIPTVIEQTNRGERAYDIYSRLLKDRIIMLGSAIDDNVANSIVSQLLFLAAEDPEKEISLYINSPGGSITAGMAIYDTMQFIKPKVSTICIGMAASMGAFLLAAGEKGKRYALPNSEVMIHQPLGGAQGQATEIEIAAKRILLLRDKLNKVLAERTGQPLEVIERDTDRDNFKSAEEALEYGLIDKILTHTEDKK
#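 Buffer: 100 mM Tris/HCl pH8, 100 mM KCl, 0.05% low protease BSA, 2.5% glycerol, 0.01% Tween-20. ClpP 10 microg/mL final; 20 min RT; delta FRET normalized to ADEP and DMSO controls.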
# gsp antagonist – antagonists of gsp mutant (McCune-Albright syndrome); gsp-mutant cells, cAMP HTRF, 30 min; control for the full effect not named in the record; Potency, µM (top dose mostly 76.9 µM), for inactives: top-dose activity change, negative = inhibition, most hits filed as inhibitors; 0.4% of 340,000 active; AID 624288; active = falling curve of any shape with a large fitted effect; inconclusive = falling curve, mostly with a smaller effect; inactive = flat or rising curve; cell line not stated here;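 also: intracellular cAMP measured with PDE inhibitor Ro 20-1724 present during compound exposure; potency is read from the fitted curve at half-maximal effect; % is scaled to controls: 0 for no effect and ±100 for the full control effect; nearly all actives have a fitted effect of over 65% in size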
#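 Cells in G418 medium, seeded 16-24 h, 37C; buffer exchange to DPBS + 1 mM CaCl2, 0.5 mM MgCl2, 0.05% BSA; cpds in DMSO + […] (300 uM stock), 30 min 37C; HTRF cAMP detection.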
# The depositor's hits bear a star; ? = inconclusive; . = not tested or not shown; & = joins results of further samples; ! = a repeat was not active; [ ] = remark or other dose.
SMILES,Sfp inh,gsp agonist,D2 agonist,PINK1 modulator,Menin MLL FP FL,ClpP mod,gsp antagonist
CCN(CC)S(=O)(=O)c1ccc(N2CCOCC2)c(NC(=O)Cc2ccc(Cl)cc2)c1,12.2%,19.9%,5.4,2.9%,0.0,.,-8.3%
COC(=O)[C@]1(C)N[C@H](CN(C)S(=O)(=O)c2ccc(-c3ccccc3)cc2)[C@@H]2C(=O)N(C)C(=O)[C@@H]21,.,.,-3.8,3.2%,.,-4.7%,2.6%
Cc1ccc(CNC(=O)C2CC(c3cc(C(F)(F)F)cc(C(F)(F)F)c3)=NO2)o1 (stereo unspecified),56.2µM*,.,-3.5,3.3%,3.5,-2.4%,6.0%
CCc1ccccc1NC(=O)CC(c1ccc(OC)cc1)n1cccc1 (stereo unspecified),18.2%,-39.8%[inhibitor],-8.3,-0.7%,2.8,-3.6%,-7.8%
COc1ccccc1NC(=S)NN1CCN(C)CC1,22.3%,22.6%,-1.0,-0.3%,1.7,-0.7%,12.7%
CCNC(=O)C1CCCN(C(=O)Cc2cccs2)CC1 (stereo unspecified),.,.,2.0,2.3%,.,-0.8%,.
O=C(NC1CCSc2ccccc21)c1ccc(F)c(S(=O)(=O)N2CCOCC2)c1 (stereo unspecified),50.1µM*,-0.3%,1.8,-0.4%,.,-4.3%,-12.9%
CCC(Sc1nc2ncnc(N)c2[nH]1)C(=O)O (stereo unspecified),8.8%,-0.3%[15.4 µM],-3.8,1.0%,-3.3,-0.6%,24.1%
Cc1nc(CSc2ccc(Cl)cc2)cc(N2CC(C)OC(C)C2)n1 (stereo unspecified),0.4%,-17.5%[15.4 µM],-1.4,2.9%,4.0,.,-5.6%
CCC(c1nnnn1C1CCCCC1)N(Cc1ccco1)Cc1cc2ccc(OC)cc2[nH]c1=O (stereo unspecified),-22.9%,3.2%,-3.7,13.5%,-1.1,?,?
CN(C(=O)C1CCCN(c2ncnc3c2nc2n3CCCCC2)C1)c1cccc(Cl)c1 (stereo unspecified),1.4%,-19.6%,-0.6,4.3%,.,0.1%,10.3%
Cc1cc(C)cc(NC(=O)c2cc(S(=O)(=O)N3CCCC3)cn2C)c1,6.1%,-37.8%[inhibitor],-0.8,4.2%,-2.2,8.6%,-17.7%
CC(C)CC(NC(=O)CCl)c1ccccc1 (stereo unspecified),3.8%,-6.6%,-0.7,1.8%,1.8,-2.0%,10.6%
OCC1(CCOc2ccccc2)CCN(Cc2cn[nH]c2-c2ccc(F)cc2)CC1,19.2%,4.3%,0.1,-1.4%,-1.7,.,13.5%
COc1cccc(-c2cccc(NC(=O)C3CCN(C4CCC4)CC3)c2)c1,11.5%,-20.6%,-3.3,-0.2%,0.1,0.5%,-10.2%
Cn1c(N)c(C(=O)COC(=O)c2ccnc3ccccc23)c(=O)n(C)c1=O,23.3%&10.4%,.,-2.7,3.0%,-2.1&-37.9,-9.6%,8.1%
CCN(CC)c1ccc2cc(C(=O)NNC(=O)c3ccc(S(=O)(=O)N4CCCCC4)cc3)c(=O)oc2c1,5.6%,-6.1%,0.8,4.5%,?,-3.0%,3.5%
COc1cc(O)c(C(CC(=O)N2CCN(c3ccccc3)CC2)c2ccc(N(C)C)cc2)c(OC)c1 (stereo unspecified),89.1µM*!,.,-1.2,1.2%,2.1&0.2,-1.1%,-12.4%
O=C(CSc1nncs1)NC1CCCCCCC1,.,-8.7%,-3.6,0.7%,.,0.5%,?
CC(=O)N1CCN(C(=S)c2ccc(Cl)cc2)CC1,7.08µM*,?,0.0,-0.3%,2.9,-6.3%,10.8%
COC(=O)c1sccc1NS(=O)(=O)c1ccc(F)cc1F,2.6%,-55.6%[inhibitor],0.3,1.4%,-10.9,-0.8%,-4.9%
CC(C)c1nc(-c2ccccc2)c(-c2ccccc2)[nH]1,?,0.7%,-4.3,10.1%,-0.8,?,3.1%
Cc1cc(C)cc(Nc2cc(=O)n(C3CCCCC3)c(=O)[nH]2)c1,-4.5%,0.3%,1.1,?,7.1,-23.3%,-3.5%
CS(=O)(=O)Nc1cccc(C2=NN(C(=O)c3ccco3)C(c3cccs3)C2)c1 (stereo unspecified),2.4%,-42.6%[inhibitor],-2.6,1.0%,.,-3.8%,-9.4%
CCOC(=O)c1cc(-c2ccccc2)nc2nc(N(CC)CC)sc12,-14.8%,2.6%,-3.2,1.9%,-1.8,.,-16.9%
COc1ccc(/C=C/CN2CCC(C(=O)NC(c3ccc(F)cc3)c3ccc4ccccc4n3)CC2)cc1 (stereo unspecified),.,.,-3.8,-0.9%,.,-3.9%,.
O=C(CCn1c(=O)c2ccccc2n(CC(=O)NCCC2=CCCCC2)c1=O)NCc1ccco1,?,-2.5%,-2.3,0.3%,1.1,-7.0%,-7.9%
CCOc1ccccc1NC(=O)c1ccc(OCC(=O)N2CCOCC2)c(OC)c1,.,-3.3%,-2.6,1.1%,.,0.3%,-11.5%
Cc1c(C(=O)NC(Cc2ccccc2)c2nc3ccccc3[nH]2)cccc1[N+](=O)[O-] (stereo unspecified),10.3%,-16.3%,-1.4,0.3%,3.9,-4.4%,-2.6%
CC(C)[C@H](NC(=O)N1CCn2c1nc1ccccc12)C(=O)NCc1ccc2c(c1)OCO2,20.1%,49.0%,0.1,-0.9%,5.0,0.5%,-11.6%
Cc1c(-c2cccc(NC(=O)c3ccco3)c2)nc2ncccn12,29.6%,17.1%[15.4 µM],0.1,-0.4%,2.6,.,-8.6%
O=C(NCc1ccco1)c1noc2c1CCCCC2,15.7%,?,-2.0,-1.5%[38.3 µM],2.7,0.9%,8.1%
Cn1nnnc1SCC(=O)NC(=O)NCc1ccccc1,2.9%,22.6%,-3.0,-0.1%,1.5,1.4%,14.0%
O=C(NC(=S)Nc1ccccc1Cl)c1ccco1,-12.5%,11.5%[15.4 µM],-5.0,2.7%,5.3,.,0.3%
CN(C)/C=C/C(=O)c1ccc(Cl)cc1Cl,23.7%,29.2%[15.4 µM],-19.0,-0.3%,5.0,.,-7.9%
CCOc1ccc(NC(=O)C2C3C=CC4(O3)C2C(=O)N(Cc2cccnc2)C4C(=O)NC2CCCCC2)cc1 (stereo unspecified),7.4%,-7.9%[15.4 µM],-1.9,0.0%,2.1,0.4%,6.8%
CN(CCC#N)C(=O)COC(=O)c1cccnc1Nc1ccccc1F,9.1%,?,0.1,-0.2%,-1.4,-0.3%,?
CCOC(=O)N1CCC(NC(=O)c2csc3c2CCCC3)CC1,13.9%,20.4%,-1.5,-0.1%,-0.6,0.5%,2.1%
CCOc1ccc(NC(=O)NC(=O)N(C(C)C)S(C)(=O)=O)cc1,24.1%,-16.9%,-3.9,3.5%,-0.2,0.6%,3.1%
CCOC(=O)C1CCN(S(=O)(=O)c2ccc(C)c(C)c2)CC1,18.9%,-19.8%[15.4 µM],-2.7,3.6%,2.0,.,4.1%
O=C(NCc1ccc(Cl)cc1)c1ccncc1,13.0%,11.8%,-3.3,-1.0%,0.0,-0.6%,10.8%
CCn1c(SCC(=O)NC2CC2)nnc1C(C)Oc1ccccc1 (stereo unspecified),7.4%,-0.8%[15.4 µM],-2.9,1.2%,.,-3.4%,-0.4%
CN(Cc1ccccc1)C(=O)CCC1CCN(C(=O)c2ccco2)CC1,.,0.3%,-4.9,1.9%,.,1.0%,.
Cc1ccc2oc(C(=O)N(Cc3ccccc3)C3CCS(=O)(=O)C3)c(C)c2c1 (stereo unspecified),-3.2%,?,1.9,0.4%,-3.1,-0.6%,?
CCOc1ccc(NC(=O)CN(C)C(=O)C2=COCCO2)cc1OCC,.,-3.9%[15.4 µM],-19.7,-1.2%,.,.,7.5%
CC(=O)NCc1ccc(C(=O)CCl)cc1,10.1%,-2.7%,-4.8,5.5%,-0.2,.,9.1%
COc1cc(OC)cc(C(=O)Nc2cccc(NC(=O)c3ccccc3)c2)c1,11.5%,-32.8%,7.9,4.2%,0.3,.,-21.3%
CCc1ccc(-c2cc(C(=O)NCc3ccccn3)c3ccccc3n2)cc1,?,26.3%,2.5,0.3%,3.7,14.1µM*,-9.1%
Cc1ccc(/C=C2\SC(=S)N(NS(=O)(=O)c3ccc(C)cc3)C2=O)cc1,-4.2%,-11.2%,1.2,1.3%,-2.0,1.0%,-19.9%
COC(=O)C(N)CCCCN (stereo unspecified),.,.,-4.3,1.6%,.,0.6%,10.4%
CC(=O)c1cc2c(cc1NC(=O)Cn1nc(C)c(C)c(C#N)c1=O)OCO2,.,-0.3%[15.4 µM],3.3,-1.3%,.,1.0%,11.8%
Cc1cc(N2C(=O)C(O)=C(C(=O)c3ccc(C)o3)C2c2cccc(Cl)c2)no1 (stereo unspecified),.,?,-2.2,2.5%,.,-6.5%,.
CC1CCN(c2nc3ccc(C(=O)N4CCN(Cc5ccc6c(c5)OCO6)CC4)cc3s2)CC1,3.2%,-14.1%,-0.3,1.2%,-3.1,-4.6%,9.5%
Cc1ccccc1Cn1cc(NC(=O)c2noc3c2CC(C(C)(C)C)CC3)cn1 (stereo unspecified),16.2%,2.8%,-1.4,18.2%[38.3 µM],1.0,184.8%,-6.6%
COc1ccc(NC(=O)Nc2ccc3c(c2)C(=O)N([C@H](C)CO)C[C@H](C)[C@@H](CN(C)S(=O)(=O)c2ccccc2)O3)cc1,.,26.1%,0.3,0.3%,.,-0.6%,4.6%
Cn1nc(C(=O)NCC(=O)Nc2ccc(F)c(F)c2)ccc1=O,.,-8.3%,-0.8,0.2%,.,-1.6%,.
Cc1ccccc1Cn1nc(C)c(NC(=O)c2noc3c2CCc2ccccc2-3)c1C,?,22.2%,-4.4,0.3%,4.3,-1.5%,-20.5%
CCN(Cc1ccccc1)S(=O)(=O)c1c(C)[nH]c(C)c1C(=O)N1CCCCC1,28.8%,?,2.4,1.7%,0.6,0.5%,-4.5%
CC(C)(C)OC(=O)N1CCC(c2c(C(=O)NCC3CCN(C4CCCC4)C3)cnn2-c2cccc(Cl)c2)CC1 (stereo unspecified),-3.2%,24.6%,-1.5,-1.2%,-1.7,0.4%,-9.8%

# Random draw from the library; overall some 5.1% were active at least once.
